gsp antag: gsp mutant antagonism. gsp-mutant cells, cAMP HTRF, 30 min; control for the full effect not named in the record. Potency, µM (series often up to 76.9 µM), for inactives: at the highest dose activity change, negative = inhibition, most hits filed as inhibitors. 0.4% of 340,000 active. AID 624288; active = falling curve of any shape with a large fitted effect; inconclusive = falling curve, mostly with a smaller effect; inactive = flat or rising curve; cell line not stated here;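 note: intracellular cAMP measured with PDE inhibitor Ro 20-1724 present during compound exposure; potency is the fitted concentration of half-maximal effect; % is set by controls: 0 for no effect and ±100 for the full control effect; nearly all actives have a fitted effect of over 65% in size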
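Cells, 2000/well, grown 16–24 h in DMEM 10% FBS with 0.5 mg/ml G418, then compounds plus […] (300 uM addition stock), 30 min at 37C. cAMP read by HTRF (cAMP-d2 and anti-cAMP antibody-K in lysis buffer) after 30 min RT.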
Menin MLL FP FL: displaces fluorescein MLL peptide from human menin. Fluorescence polarization, fluorescein-MLL peptide displacement from menin. FP activity change, % at 61.4 µM. 290,000 tested, under 10 active; inconclusive = falling polarisation curve, or a change in total fluorescence; inactive = total fluorescence flat and polarisation flat or rising; no compound was filed as active; the % refers to the polarisation; negative = inhibition;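 note: % of control where 0% means no effect; inhibitors lower the polarisation; unlabelled MLL peptide was the positive control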
PINK1 expr mod: changes PINK1 expression; PINK1 immunofluorescence, high-content cytometry, 24 h; Potency, µM (top dose mostly 76.6 µM), for inactives: at the top dose activation (PINK1 increase), hits mostly activators; 0.2% of 410,000 active; AID 624263; active = well fitted activation curve with a large enough effect; inconclusive = small, poorly fitted or top-dose-only effect; inactive = flat fitted curve, though single readings scatter; cell line not stated here;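 note: potency is the fitted concentration of half-maximal effect; % of control where 0% means no effect; nearly all actives have a fitted effect of over 65% in size; a mitochondrial uncoupler was the plate control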
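Cells are seeded, rested 12 hours, then given compound at five concentrations or DMSO for 24 hours. After fixation, blocking and antibody staining, PINK1 amount and mitochondrial localization are scored; CCCP serves as control.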
D2 ag: human D2 receptor agonism in beta-arrestin assay; 0.084% of 360,000 active; P14416; DiscoveRx PathHunter D2 beta-arrestin, luminescence, 90 min; 100% = 57 uM dopamine signal; AID 624465; activation, % (test concentration not listed); in the data active = activation above about 40%; inconclusive = about 15% to 40%; inactive = below about 15%; note: compound concentration not given in the record; the text of the record calls up to 30% inactive
Target sequence (P14416 whole entry, looked up): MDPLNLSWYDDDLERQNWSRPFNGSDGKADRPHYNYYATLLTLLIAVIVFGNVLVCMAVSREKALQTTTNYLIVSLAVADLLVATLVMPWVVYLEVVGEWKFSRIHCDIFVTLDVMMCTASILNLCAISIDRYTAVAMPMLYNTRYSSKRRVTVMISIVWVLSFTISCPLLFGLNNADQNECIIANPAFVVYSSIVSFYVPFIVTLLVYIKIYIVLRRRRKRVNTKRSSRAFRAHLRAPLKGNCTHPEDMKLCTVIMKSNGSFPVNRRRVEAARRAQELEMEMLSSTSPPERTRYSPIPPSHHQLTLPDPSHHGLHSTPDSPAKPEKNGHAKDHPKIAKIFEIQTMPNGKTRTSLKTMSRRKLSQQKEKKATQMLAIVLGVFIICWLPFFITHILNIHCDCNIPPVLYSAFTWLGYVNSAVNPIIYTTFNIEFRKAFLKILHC
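DiscoveRx PathHunter D2 beta-arrestin cells (2,100/well) attached overnight, then compound-stimulated 90 min at 37 C in HBSS/10 mM HEPES/0.1% Tween-20 buffer; beta-galactosidase complementation read by luminescence after 1 h at ambient temperature. Dopamine 57 uM final (EC100) as control.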
Sfp inh: inhibitors of Bacillus subtilis Sfp phosphopantetheinyl transferase; Biochemical Sfp PPTase activity, qHTS; 3.5% of 310,000 active; Potency, µM, without a hit: max response, negative = inhibition, usual class: inhibitors; active = well fitted inhibition curve with a large enough effect; inconclusive = small, poorly fitted or top-dose-only effect, or another doubt; inactive = no such curve, though single readings can be large or run the other way;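 note: the enzyme is Sfp with the accession as filed and its product quenches rhodamine fluorescence; potency is the fitted concentration of half-maximal effect; 0% = enzyme reaction without inhibitor and -100% = no enzyme wells; top concentration of the series not given in the record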
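After 15 min at room temperature with compound, 15 nM Sfp received 5 uM rhodamine-CoA plus 12.5 uM BHQ-2-ybbR (50 mM Hepes pH 7.6, 10 mM MgCl2). Rate came from the fluorescence difference over 30 min, ex 525/em 598 nm.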
gsp agonist: activates gsp, the McCune-Albright syndrome mutation. gsp mutant cells, cAMP HTRF, 30 min; control for the full effect not named in the record. Potency, µM (titrated, usually from 76.9 µM), for inactives: top-dose activation (cAMP increase), hits mostly activators. 0.13% of 340,000 active; active = well fitted activation curve with a large enough effect; inconclusive = small, poorly fitted or top-dose-only effect, or another doubt; inactive = no such curve, though single readings can be large or run the other way; cell line not stated here;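 note: phosphodiesterase inhibitor Ro 20-1724 added with compounds to block cAMP breakdown; potency is the fitted concentration of half-maximal effect; nearly all actives have a fitted effect of over 60% in size; about a fifth of the inactives were tested at one dose only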
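Cells in DMEM/10% FBS with G418 were pretreated with compounds in DMSO plus […] (300 uM stock) for 30 min at 37C. cAMP was measured by HTRF (cAMP-d2 plus anti-cAMP antibody-K) after 30 min at room temperature.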
ClpP mod: qHTS Assay for Activators of ClpP | Potency, µM (highest dose often 57.5 µM), inactives show at the top dose activity change, negative = active | purified B. subtilis ClpP, FRET peptide cleavage, 20 min | ATP-dependent Clp protease proteolytic subunit (Bacillus subtilis (strain 168)), P80244 | 1.9% of 340,000 active | AID 651965, 2013; active = well fitted falling curve with a large enough effect; inconclusive = small, poorly fitted or top-dose-only effect; inactive = no such curve, though single readings can be large or run the other way; note: potency is the fitted concentration of half-maximal effect; the source files actives as falling curves though it sought activators and does not explain the sign; nearly all actives have a fitted effect of over 65% in size; many hits overshoot -100%
Target sequence (P80244 whole entry, looked up): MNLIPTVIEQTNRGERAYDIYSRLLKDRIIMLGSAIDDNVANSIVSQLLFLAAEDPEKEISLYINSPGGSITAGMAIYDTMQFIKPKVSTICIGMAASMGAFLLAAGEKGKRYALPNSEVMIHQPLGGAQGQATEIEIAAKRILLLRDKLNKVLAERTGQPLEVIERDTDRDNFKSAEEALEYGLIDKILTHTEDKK
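ClpP 10 microg/mL final, pH 8 Tris/KCl buffer with BSA, glycerol, Tween-20; compound pinned in; FRET-FV substrate; RT 20 min; Ex320/Em430; ΔFRET vs ADEP 5.8 microM, DMSO, no enzyme.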
Active calls of the source: *; ? = inconclusive; . = not tested or not shown; [ ] = remark or other dose.

item	mol	gsp antag	Menin MLL FP FL	PINK1 expr mod	D2 ag	Sfp inh	gsp agonist	ClpP mod
1	C=CCNC(=O)CN1C(=O)c2cccc3cccc1c23	2%	-0.1	6.3%	2.6	18%	16%	-3.8%
2	CCCc1ccc(OCCNC(=O)c2ccccc2Br)cc1	-18%	-4.3	2.3%	-4.5	1%	-30%	0.8%
3	COc1ccc(N(C(=O)c2snc(C(N)=O)c2N)C(C(=O)NC2CCCC2)c2ccc3ncccc3c2)cc1 (configuration not stated)	-21%	1.0	-2.1%	-1.1	15%	?	.
4	Nc1c(Cl)ncnc1N/N=C/c1ccnc2ccccc12	11%	.	5.0%	-1.9	35µM*	4%	0.8%
5	CCOC(=O)c1cnc2ccc(C)cc2c1Sc1ccccc1	-8%	6.7	5.7%	-0.5	-3%	25%	0.6%
6	CCOC(=O)c1c(CN(CC)CC)n(C)c2cc(Br)c(O)cc12	-1%	0.2	-0.9%	-1.7	5%	19%[15.4 µM]	.
7	CCn1c(Cc2ccccc2)nnc1SCC(=O)Nc1ccccc1N1CCOCC1	6%	0.4	0.6%	-0.9	8%	1%	0.5%
8	COc1ccc2[nH]cc(C(=O)CN3CC(C)CC(C)C3)c2c1 (configuration not stated)	-12%	-3.3	-1.2%	1.4	6%	-3%[15.4 µM]	0.6%
9	O=C(NCC(=O)N1CCN(S(=O)(=O)c2ccccc2)CC1)c1ccc2ccccc2c1	?	.	-2.1%	-4.0	.	-29%	-7.1%
10	CC(=O)c1cccc(NS(=O)(=O)c2ccc(N/C=C\C(=O)c3ccc(F)cc3)cc2)c1	-13%[15.4 µM]	.	2.3%	3.9	2%	-5%	-17%
11	CCc1ccc2c(c1)NC(=O)C2(C)Cc1ccc(C(F)(F)F)o1 (configuration not stated)	.	.	6.5%	2.6	.	.	3.0%
12	COCOc1ccc(-c2ncc(OC)nc2NC(=O)c2ccsc2)cc1	.	.	1.6%	-2.5	.	.	-8.8%

Other results follow:
item	mol	gsp antag	Menin MLL FP FL	PINK1 expr mod	D2 ag	Sfp inh	gsp agonist	ClpP mod
13	C=CCN(C(=O)CSc1nc2ccsc2c(=O)n1Cc1ccccn1)c1ccccc1	-23%	0.3	0.4%	-18	-5%	10%[15.4 µM]	.
14	Cn1c(=O)n(C)c2cc([N+](=O)[O-])c(N3CCN(C(=O)C(C)(C)C)CC3)cc21	5%	3.0	0.6%	-6.5	3%	1%	.
15	COc1ccccc1N1CCN(C2CCCN(C(=O)CCN3CCCCO3)C2)CC1 (configuration not stated)	3%	.	0.2%	-2.8	6%	4%	-1.2%
16	CC1CCCCN1S(=O)(=O)c1cccc2nonc12 (configuration not stated)	9%	.	-0.7%	0.7	13%	16%	0.3%
17	N#Cc1c2ccc(O)cc2n2ccccc12	?	?	-1.0%	9.9	-5%	9%[15.4 µM]	-2.0%
18	COCc1[nH][nH]c(=O)c1C=Nc1ccc(OC(F)(F)F)cc1	2%	-1.0	1.0%	-1.8	5%	-7%	0.0%
19	O=C(Cn1c(=O)oc2cc(S(=O)(=O)N3CCOCC3)ccc21)N1CCc2ccccc2C1	1%	1.2	1.1%	-7.7	0%	-19%	2.4%
20	O=C1C2C3C=CC(C2C(=O)N1CCCO)C1C2C(=O)N(CCCO)C(=O)C2C31 (configuration not stated)	10%	1.4	1.5%[38.3 µM]	-2.8	-1%	4%	0.5%
21	COc1cccc(/C=N/NC(=O)CN2CC(c3ccccc3)CC2=O)c1O (configuration not stated)	2%	.	-3.4%	-0.4	0%	18%	-18%
22	CC(OC(=O)Nc1cccc(Cl)c1)C(=O)OC1CCCCC1 (configuration not stated)	-12%	.	8.6%	-5.4	.	-2%	?
23	COc1ccccc1C(=O)NNC(=S)NC(=O)c1sc2ccccc2c1Cl	8%	-0.5	11%	-3.9	13%	18%	1.2%
24	Cc1cc(N2CCOCC2)nc2ccc(NC(=O)CCC(=O)N3CCN(c4ccccc4F)CC3)cc12	-21%	0.2	8.9%	-4.9	2%	-8%[15.4 µM]	3.4%

More entries follow:
item	mol	gsp antag	Menin MLL FP FL	PINK1 expr mod	D2 ag	Sfp inh	gsp agonist	ClpP mod
25	O=C(Nc1ccccc1N1CCN(C(=O)c2ccccc2)CC1)c1cc2ccccc2o1	-4%	3.9	-0.2%	3.5	9%	-18%	10%
26	Cc1ccc(S(=O)(=O)N2CCOCC2)cc1NC(=O)CN1C(=O)CN(C)C1=O	8%	.	1.0%	1.3	.	11%[15.4 µM]	-2.0%
27	CCCCn1c(SCCN2CCCCC2)nc2c1c(=O)n(C)c(=O)n2C	.	.	2.4%	-1.6	.	?	1.3%
28	O=C(NCc1ccccc1)c1ccc(=O)oc1	14%	2.4	0.6%	-1.9	-6%	3%	.
29	CCN(CC)C(=O)c1csc(Nc2ccc(C)cc2)n1	-1%	4.9	-0.5%	1.1	20µM*	21%	-2.4%
30	Cc1ccc(NC(=O)CCc2c(C)nc3ncnn3c2C)nc1	6%	0.6	0.0%[38.3 µM]	-0.6	21%	11%	-1.2%
31	O=C(CNC(=S)N(Cc1ccccc1Cl)C1CCCC1)NCCCN1CCOCC1	8%	-3.3	1.4%	-3.4	-21%	-11%[15.4 µM]	.
32	CCN(CC)S(=O)(=O)c1ccc(OC)c(NC(=O)Cc2cccs2)c1	-1%	7.6	-1.4%	-9.5	-3%	-4%	0.9%
33	Cc1nc2ccc(C(=O)N3CCCC(CO)(Cc4ccc(F)cc4F)C3)cc2nc1C (configuration not stated)	11%	.	0.8%	2.4	11%	13%	0.1%
34	O=C(c1ccc(Cl)c([N+](=O)[O-])c1)N(Cc1ccc(Cl)cc1)C1CCS(=O)(=O)C1 (configuration not stated)	4%	2.7	-4.4%	-1.7	5%	-18%[15.4 µM]	1.1%
35	C=CCN=c1sc(C(=O)OC)cc(=O)n1CC=C	3%	2.8	1.4%[38.3 µM]	-2.6	2%	-42%[inhibitor]	-0.8%
36	Cc1[nH]c(=O)[nH]c(=O)c1S(=O)(=O)N1CCC(C(=O)N2CCN(Cc3ccccc3)CC2)CC1	-6%	-0.4	0.4%	-0.7	16%	-24%	0.0%

(list continues)
item	mol	gsp antag	Menin MLL FP FL	PINK1 expr mod	D2 ag	Sfp inh	gsp agonist	ClpP mod
37	CC(=O)n1nc(-c2ccccc2)cc1-c1ccccc1	-4%	.	?	-0.6	.	3%[15.4 µM]	0.1%
38	c1ccc(COc2ccc(OCCN3CCCCC3)cc2)cc1	-11%	0.6	4.6%	-5.2	50µM*	-28%	-2.3%
39	O=C1/C(=C/c2cccs2)COc2ccccc21	2%	1.7	0.3%	-6.4	13%	-38%[15.4 µM]	5.7%
40	C=CCN1C(=O)C(CC(=O)NCC)SC1=Nc1ccccc1CC (configuration not stated)	5%	-3.3	-1.5%	0.3	-1%	-1%[15.4 µM]	-8.1%
41	CCOC(=O)c1c(S(=O)(=O)NCC(=O)Nc2cccc(C)c2C)c(C)n(C)c1C	12%	.	-1.3%	-1.3	4%	-20%	2.3%
42	COc1ccc(O)c(C(=O)c2cnc3c(c2)CN(C)C(=O)N3)c1	4%	1.6	8.9%	-3.8	11%	15%	-13%
43	Cc1ccc2c(c1)C=CC(C#N)N2C(=O)Oc1ccccc1 (configuration not stated)	.	.	2.6%	-1.1	.	?	-11%
44	O=C(NNC1CC(=O)N(c2cccc(Cl)c2)C1=O)c1cccs1 (configuration not stated)	-2%	0.9	-0.8%	-5.2	1%	-20%[15.4 µM]	1.7%
45	N#Cc1ccc(OCc2noc(-c3ccsc3)n2)cc1	8%	0.4	-0.8%	-0.1	8%	18%[15.4 µM]	.
46	CCc1cc(=O)oc2cc(O[C@@H]3O[C@H](CO)[C@@H](O)[C@H](O)[C@H]3O)c(Cl)cc12	10%	6.8	-2.9%	4.9	10%	?	3.6%
47	C#CC[N+](C)(C)CCCCCCCCC	30%	3.9	4.6%	-2.4	7%	?	-1.9%
48	Cc1ccc(Nc2nc(N)nc(CSc3nccn3C)n2)c(C)c1	7%	-0.1	-2.6%	-0.6	11%	-3%	4µM*

(list continues)
item	mol	gsp antag	Menin MLL FP FL	PINK1 expr mod	D2 ag	Sfp inh	gsp agonist	ClpP mod
49	CCOc1ccc(NC(=O)C2CC(=O)N(CC)C(=Nc3ccc4c(c3)OCO4)S2)cc1 (configuration not stated)	-11%	1.9	14%[38.3 µM]	2.6	5%	-59%[inhibitor]	1.6%
50	CCOC(=O)c1ccccc1NC(=O)COC	16%	1.8	5.9%	-1.8	12%	-59%[inhibitor]	-21%
51	COc1ccc(-c2nnc(SCC(=O)NC3CC3)o2)cc1	8%	.	3.7%	-0.6	.	-11%	-3.3%
52	CN1OC[C@@H]2CN(Cc3ccccc3)[C@H](c3cccc(-c4ccccc4)c3)C[C@@H]21	.	.	15%	-6.9	.	-80%[inhibitor]	-0.7%
53	Cn1c2ccccc2c2c(=O)oc3ccccc3c21	3%	.	-0.3%	-3.2	.	.	4.7%
54	CCCN(CCC)C1=CC(=[N+]2CCCC2)CC(C)(C)C1	8%	2.0	?	1.4	-18%	14%[15.4 µM]	-9.7%
55	CCCCn1cnc2c(Sc3c([N+](=O)[O-])ncn3C)nc(N)nc21	4%	.	1.0%	-0.3	.	?	.
56	CCOc1ccc(CC(=O)NNC(=O)NC2CCCCC2)cc1	9%	1.4	1.9%	-1.6	16%	-32%[inhibitor]	.
57	NC(=S)Nc1ncc(C(F)(F)F)cc1Cl	1%	0.4	0.0%	-1.3	?	2%[15.4 µM]	.

High-throughput results (PubChem BioAssay)
